NPYLR7 ag: activates Aedes aegypti NPYLR7 receptor. activation, % at 10 µM. 270,000 tested, 0.15% active. HEK293T NPYLR7/Galpha15, GCaMP6s calcium fluorescence; in the data active means activation above about 40%;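 further: 0% = vehicle and 100% = reference agonist at the receptor; some compounds past the cut are filed as inactive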
NPYLR7 ag max-min: second read-out of NPYLR7 ag, no call of its own (marks repeat the call); activation, %; measured here: Max-Min RFU normalised activation; some inactives read as strong as hits;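 span of the calcium signal over five minutes; 0% = vehicle and 100% = native peptide agonist; compound fluorescence can raise it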
Numbers without * were called inactive; & = joins results of further samples. Not all compounds are listed; the hit share may differ from the screen's.

SMILES | NPYLR7 ag | NPYLR7 ag max-min
COc1ccc(NC(=O)NC2CC3CC2C2CCCC32)cn1 (stereo not drawn) | 1 | 0
Cc1ccccc1CN1CCC(CN(Cc2cccnc2)C(=O)c2ccsc2)CC1 | -1 | -5
CNC(=O)c1c(NC(=O)C(C)SC)sc2c1-c1ccccc1C2 (stereo not drawn) | -10 | -9
O=C(NNC(=O)c1cc2cc(Cl)ccc2o1)c1cnccn1 | -14 | -15
CCOc1ccc(NC(=O)c2nnn(-c3ccc(OCC)cc3)c2C)cc1 | -7 | -9
CC(C)c1nnc2sc(-c3cccc(-n4cccn4)c3)nn12 | -22 | -29
CN(C(=O)CN1CCOCC1)c1ccccc1C(=O)NCc1ccco1 | -2 | 2
Cc1ccc2[nH]c(C(=O)NC3CCN(CC(F)F)CC3)cc2c1C | 10 | 3
CCCC(=O)Nc1cc(C(=O)NCc2csc(-c3cnccn3)n2)ccc1C | -2 | 3
CCSc1nc(CC(=O)NCc2n[nH]c3c2CCCCC3)cs1 | 2 | 0
O=C(CN(Cc1ccccc1)c1nc(Cc2ccccc2)ns1)N1CCN(c2ccc([N+](=O)[O-])cc2)CC1 | -4 | 2
CC(C)(C)Cc1c(-c2ccccc2)ncn1CC1CCOCC1 | -6 | -10
CCN(CC)CCn1c2ccccc2c2nc(C)sc21 | 4 | 3
O=C(CCN1CCN(S(=O)(=O)c2cccs2)CC1)Nc1ccc2c(c1)OCCO2 | 3 | 0
O=C1COCc2cc(-c3cccnc3)ccc2N1CC1CCCCC1 | 4 | 3
Cc1ccc(CN2CCN(C(=O)CN3CC4=C(C3=O)C(c3ccc(C)cc3)NC(=O)N4C)CC2)cc1 (stereo not drawn) | -1 | 3
CCc1nc2ccc(C(=O)N(C)C(C)C)cn2c1N(C=O)CCC(C)C | -3 | -7
Cc1[nH]c2ccccc2c(=O)c1CC=C(Cl)Cl | -22 | -28
COc1ccc(-c2cc3ccccc3c(=O)o2)cc1 | 2 | 0
CCCCc1nc2cc(C(=O)N3CCN(C(=O)c4cccs4)CC3)ccc2o1 | -3 | -8
COc1cc(NC(=O)C(C2CCCC2)N2CCN(C(=O)C3CC3)CC2)cc(OC)c1 (stereo not drawn) | -2 | 4
N#CCSc1nc(N)c(C#N)c(-c2ccc(O)cc2)c1C#N | 1 | -1
Cc1cccc(-c2cc(N)n(-c3ccc(C(=O)Nc4cccc(Oc5ccccc5)c4)cc3)n2)c1 | -7 | -11
Cc1noc(C)c1CNC(=O)CSc1cn(C)c2ccccc12 | -9 | -15
CC(C)NC(=O)N(Cc1ccccc1F)CC1CC(c2ccc(F)cc2)=NO1 (stereo not drawn) | 16 | 12
COc1ccc2ccccc2c1CNC(=O)c1nc(N2CCCC2)ncc1Cl | -1 | -2
CN(CCc1ccccn1)C(=O)c1ccc(Nc2cccc(C(F)(F)F)c2)nc1 | -4 | -9
Cc1ccc(C)c(C(=O)c2ccccc2C(=O)NCC(=O)NC(C)C)c1 | -5 | -9
O=C(COC(=O)c1cnccn1)Nc1ccc(Br)cc1 | 1 | 0
c1ccc2c(c1)oc1c(NC3CCCCCC3)ncnc12 | 26 | 17
CC(C)C(NS(=O)(=O)c1cccs1)C(=O)N1CCN(C(=O)C2CC2)CC1 (stereo not drawn) | 2 | -4
Cc1c(O)ccc2c1OC(C(C)(C)O)C2=O (stereo not drawn) | -8 | -15
COc1cccc(OCC2c3ccsc3CCN2C(=O)CN(CC2CCCO2)C(=O)Cc2ccccc2)c1 (stereo not drawn) | -2 | 4
CNC(=O)c1ccc(CN(C)C(=O)c2ccccc2C(F)(F)F)cc1 | 1 | 2
N#Cc1sc2nc(-c3cccs3)ccc2c1N | 7 | 1
O=C1CCC(NCC2(c3cccc(F)c3)CCOCC2)CCN1CC1CC1 (stereo not drawn) | 11 | 8
O=C(O)c1c[nH]c2ccc(S(=O)(=O)N3CCN(c4ccc(F)cc4)CC3)cc2c1=O | 1 | -2
Cc1ccccc1Oc1ncccc1CNC(=O)CCc1cn[nH]c1 | 13 | 5
CCOP(=O)(OCC)C1(Nc2ccc(C)cc2)CCCCC1 | 2 | -1
Cc1c(NC(C)C)c(=O)n(-c2ccccc2)n1C | -10&-3&-4 | -18&-8&-8
ClCC1CSC(=NC23CC4CC(CC(C4)C2)C3)O1 (stereo not drawn) | -5 | 1
C=CCNC(=O)C(NC(=O)c1ccc(OC)cc1)C1CCN(C(=O)c2cccc(C)c2)CC1 (stereo not drawn) | -3 | 4
CC(COCC(F)(F)F)NC(=O)c1ccc(N2CCCCCC2)nc1 (stereo not drawn) | 2 | 444
O=C(COc1cc(=O)n2ccccc2n1)Nc1ccc(F)cc1 | -2 | 0
CN(C)[C@@H]1C[C@@H](CO)N(C(=O)c2ccccn2)C1 | 3 | 17
Cc1ccccc1-n1cc(-c2c(-c3ccccc3)ncn2Cc2ncn[nH]2)cn1 | 2 | 0
O=C(NCCc1ccc(F)cc1)c1ccccc1NS(=O)(=O)c1ccc(OC(F)(F)F)cc1 | -4 | 5
Cc1nc2c(-c3ccccc3)cnn2c(NCCCn2ccnc2)c1C | 2 | 4
CC(=O)C1=C(C)N=C(SCC(=O)O)C(C#N)C1c1ccco1 (stereo not drawn) | 2 | -3
COC(=O)C1CCN(C(c2ccccc2)C2Sc3nc(-c4ccco4)nn3C2=O)CC1 (stereo not drawn) | -6 | -9
COc1ccc(CC2(CCC(=O)N3CCCCC3C)CCC(=O)N2)c(F)c1 (stereo not drawn) | 16 | 1
CCN(C(=O)COC(=O)c1cc2ccccc2cc1O)C1CCS(=O)(=O)C1 (stereo not drawn) | -2 | -5
C=c1onc(-c2ccccc2)c1=c1[nH]/c(=C\c2cc(OC)ccc2OC)c(=O)o1 | -2 | -4
CC(C)(C)c1cc2nc(-c3ccc(F)cc3)cc(C(=O)N3CCN(Cc4ccc5c(c4)OCO5)CC3)n2n1 | 17&-13 | 15&-4
Cc1ccnc(SCCCn2c(N3CCCCC3)nc3c2c(=O)[nH]c(=O)n3C)n1 | 7 | 10
CCc1cnc2c(c1SCc1cccc([N+](=O)[O-])c1)c(=O)n(C)c(=O)n2C | 5 | 8
Fc1ccc(NC(=S)N(Cc2c(-c3ccc(F)cc3)noc2N2CCOCC2)CC2CC2)cc1 | -7 | -1
COC(=O)Cn1cc(CN2CCC(CO)(Cc3cccc(C(F)(F)F)c3)CC2)c2ccccc21 | 18 | 9
COc1ccccc1-n1cc(CN2CCC(O)(c3ccc(C)cn3)CC2)cn1 | 1 | 0
CCNC(=O)c1ccc(-c2ccccc2OCC)s1 | -19 | -21

Ordered by length of the SMILES (smallest number first): part of the list above
SMILES | NPYLR7 ag | NPYLR7 ag max-min
CCNC(=O)c1ccc(-c2ccccc2OCC)s1 | -19 | -21
Cc1c(NC(C)C)c(=O)n(-c2ccccc2)n1C | -10&-3&-4 | -18&-8&-8
ClCC1CSC(=NC23CC4CC(CC(C4)C2)C3)O1 (stereo not drawn) | -5 | 1
CCOP(=O)(OCC)C1(Nc2ccc(C)cc2)CCCCC1 | 2 | -1
Cc1ccccc1Oc1ncccc1CNC(=O)CCc1cn[nH]c1 | 13 | 5
Cc1nc2c(-c3ccccc3)cnn2c(NCCCn2ccnc2)c1C | 2 | 4
CC(COCC(F)(F)F)NC(=O)c1ccc(N2CCCCCC2)nc1 (stereo not drawn) | 2 | 444
CN(C)[C@@H]1C[C@@H](CO)N(C(=O)c2ccccn2)C1 | 3 | 17
O=C1CCC(NCC2(c3cccc(F)c3)CCOCC2)CCN1CC1CC1 (stereo not drawn) | 11 | 8
COc1ccc(CC2(CCC(=O)N3CCCCC3C)CCC(=O)N2)c(F)c1 (stereo not drawn) | 16 | 1
CCN(C(=O)COC(=O)c1cc2ccccc2cc1O)C1CCS(=O)(=O)C1 (stereo not drawn) | -2 | -5
Cc1ccccc1-n1cc(-c2c(-c3ccccc3)ncn2Cc2ncn[nH]2)cn1 | 2 | 0
Cc1ccnc(SCCCn2c(N3CCCCC3)nc3c2c(=O)[nH]c(=O)n3C)n1 | 7 | 10
COC(=O)C1CCN(C(c2ccccc2)C2Sc3nc(-c4ccco4)nn3C2=O)CC1 (stereo not drawn) | -6 | -9
CCc1cnc2c(c1SCc1cccc([N+](=O)[O-])c1)c(=O)n(C)c(=O)n2C | 5 | 8
C=c1onc(-c2ccccc2)c1=c1[nH]/c(=C\c2cc(OC)ccc2OC)c(=O)o1 | -2 | -4
O=C(NCCc1ccc(F)cc1)c1ccccc1NS(=O)(=O)c1ccc(OC(F)(F)F)cc1 | -4 | 5
C=CCNC(=O)C(NC(=O)c1ccc(OC)cc1)C1CCN(C(=O)c2cccc(C)c2)CC1 (stereo not drawn) | -3 | 4
CC(C)(C)c1cc2nc(-c3ccc(F)cc3)cc(C(=O)N3CCN(Cc4ccc5c(c4)OCO5)CC3)n2n1 | 17&-13 | 15&-4

Remaining list, next part
SMILES | NPYLR7 ag | NPYLR7 ag max-min
COC(=O)C(c1ccc(F)cc1)N1CCC(CNC(C)=O)CC1 (stereo not drawn) | -1 | 15
O=C(C(=O)N1CCCC(c2[nH]ncc2Cc2ccccc2)C1)c1cccnc1 (stereo not drawn) | 2 | -3
Cc1csc(NC(=O)C/C=C/c2ccc(F)cc2)n1 | -3 | -3
O=C(CC1COCCN1)NCc1nncn1CCc1ccccc1 (stereo not drawn) | 22 | 9
CCS(=O)(=O)N1CCC(=O)N(Cc2ccc(F)cc2)C(C(C)C)C1 (stereo not drawn) | 5 | 2
O=C(Nc1cccc(S(=O)(=O)N2CCCCC2)c1)c1ccsc1 | -15 | -8
Cc1ccc(OCCn2c(SCC(O)CO)nc3ccccc32)cc1 (stereo not drawn) | 0 | 2
CCOC(=O)c1cc(-c2cccc(NC(=O)c3ccco3)c2)n(-c2cccc(C)c2)n1 | 24 | 8
Cc1cccc(N2CCN(C(C(N)=O)c3ccc(F)cc3)CC2)c1C (stereo not drawn) | -7 | -10
O=C(Cc1csc(NC(=O)c2ccc[nH]c2=O)n1)NC1CCCCC1 | -1 | 5
CCCCCOC(=O)C1=C(C)N(C)C(=O)NC1c1cc(Cl)c(O)c(OC)c1 (stereo not drawn) | 5 | 5
COCc1nc(N(C)CCc2c(C)n[nH]c2C)c2cnn(C)c2n1 | 17 | 13
O=C(CSc1ccc(-c2ccncc2)nn1)Nc1ccccc1 | 4 | -5
COc1ccc(S(=O)(=O)N2CCC(NC(=O)CCc3ccccc3O)CC2)cc1 | 1 | 3
CCOc1ccc(NC(=O)NCCCn2nc(-c3ccncc3)ccc2=O)cc1 | 14 | 6
COc1ccc(-c2cc(C(=O)NC(C)c3ccccc3)n(-c3ccc([N+](=O)[O-])cc3)n2)cc1 (stereo not drawn) | 0 | 1
CN(Cc1cnc(N2CCCC2)nc1)Cc1cc(-c2ccccc2)no1 | 12 | 9
Cc1ccc(C(=O)Cn2c(=O)n(Cc3cccnc3)c(=O)c3ncccc32)cc1C | 2 | -1
Cc1cc(C)c(C)c(S(=O)(=O)Nc2ccccc2C(=O)NCc2cccc(Cl)c2)c1C | 0 | 11
C=C(C)CN(c1cnn(C)c1)C(C)c1cccc(OC)c1 (stereo not drawn) | 6 | 2
Cc1nc(C)n(CC(C)C(=O)Nc2ccc(F)cc2)n1 (stereo not drawn) | 1 | 12
COC(=O)Cn1ncn2nc(-c3cccs3)cc2c1=O | 1 | -1
CC(CCC1CCCO1)NC(=O)N(C)CC1CCN(C)CC1 (stereo not drawn) | -15 | -14
COc1cccc(CN2CCCn3cccc3C2c2ccc(F)c(F)c2)c1O (stereo not drawn) | 1 | 13
Cc1ccc(C(O)=C2C(=O)C(=O)N(c3ncccn3)C2c2ccc([N+](=O)[O-])cc2)cc1 (stereo not drawn) | 3 | 4
COCC(=O)Nc1nn(C)c2c1C(C)CC(=O)N2 (stereo not drawn) | -13 | -17
COc1ccc(N(C)S(=O)(=O)c2ccc(OC)c(N3CCN(C(=O)c4ccc(F)cc4C(F)(F)F)CC3)c2)cc1 | 12 | 15
Cc1cccc(=O)n1CCC(=O)N1CCCC(c2ccn[nH]2)C1 (stereo not drawn) | 0 | 7
COc1ccc(C(=O)N2CC(=O)N3CC(C)c4ccccc4C3C2)cc1OC (stereo not drawn) | -1 | 12
CCn1c(C2CCCN(C(=O)Cn3nc4ccccc4n3)C2)nn(C)c1=O (stereo not drawn) | 0 | -1
O=C(C=Cc1ccc2c(c1)OCO2)NCc1ccc(OC(F)(F)F)cc1 | 0 | 3
CC(CNCc1ccc(Cl)c(Cl)c1)Oc1ccccn1 (stereo not drawn) | 8 | 2
CN(C)CCN1CCN(c2cc(-c3cccc(O)c3)nc3ccnn23)CC1 | -5 | -9
C1CCC(CN2CCCCC2)CC1 | -16 | -27
O=C(Nc1cccc2ccccc12)N1CCN(Cc2ccccc2F)CC1 | 4 | 3
Cc1ccc(-c2nc(C)c(Cc3ccccc3)c(N3CCN(S(=O)(=O)c4cccc(C(F)(F)F)c4)CC3)n2)cc1 | -4 | 3
O=C(CSc1ncnc2sc3c(c12)CCCC3)NC1CCCCC1 | 1 | 28
O=C(CSc1ccc(NC(=O)c2cccc(F)c2)nn1)NCC1CCCO1 (stereo not drawn) | 1 | -1
CN1OCC(S(=O)(=O)N2CCc3ccccc3C2)C1c1cccc(F)c1F (stereo not drawn) | 4 | 1
CCOC(=O)N1CCN(C(=O)CSc2nc3c(c(=O)n2-c2cccc(OC)c2)SCC3)CC1 | -9 | -13
Cc1nc(N)[nH]c(=O)c1CCC(=O)O | 5 | 10
CCOC(=O)C1=C(C)NC(=S)NC1c1ccc(OC)cc1OC (stereo not drawn) | 2 | 9
COC(=O)C1=C(C)N(C2CCCC2)C(=O)C1(NC(C)=O)C(F)(F)F (stereo not drawn) | 9 | 2
CC(NC(=O)C1CCN(Cc2ccc(Cl)c(Cl)c2)CC1)c1ccccc1 (stereo not drawn) | 11 | -3
